D2 ag: activates the human D2 dopamine receptor; activation, % (concentration not given with the values); P14416; AID 624465; DiscoveRx PathHunter D2 beta-arrestin, luminescence, 90 min; 100% = 57 uM dopamine signal; hit rate 0.084% among 360,000; in the data active = activation above about 40%; inconclusive = about 15% to 40%; inactive = below about 15%; also: compound concentration not given in the record; the text of the record calls up to 30% inactive
Target sequence (P14416 whole entry, looked up): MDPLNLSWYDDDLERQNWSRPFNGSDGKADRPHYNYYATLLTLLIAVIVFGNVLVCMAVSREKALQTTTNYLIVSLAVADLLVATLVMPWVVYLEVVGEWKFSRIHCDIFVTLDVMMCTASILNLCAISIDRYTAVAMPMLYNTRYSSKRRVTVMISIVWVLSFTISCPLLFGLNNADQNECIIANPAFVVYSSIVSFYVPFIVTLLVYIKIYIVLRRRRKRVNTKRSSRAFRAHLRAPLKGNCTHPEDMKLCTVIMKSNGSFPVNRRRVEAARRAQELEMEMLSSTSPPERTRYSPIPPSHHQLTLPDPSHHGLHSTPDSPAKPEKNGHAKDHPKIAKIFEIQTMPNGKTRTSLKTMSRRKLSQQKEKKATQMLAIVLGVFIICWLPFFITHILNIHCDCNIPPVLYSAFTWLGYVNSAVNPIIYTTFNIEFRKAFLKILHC
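Agonist mode: compounds alone added to overnight-plated D2 PathHunter cells for 90 min at 37 C, with 57 uM final dopamine (EC100) defining full response. Beta-arrestin recruitment detected by chemiluminescent reagent, read after 1 h at ambient temperature.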
PINK1 modulator: PINK1 expression modulation; PINK1 immunofluorescence, high-content cytometry, 24 h; Potency, µM (titrated, usually from 76.6 µM), without a hit: top-dose activation (PINK1 increase), hits mostly activators; hit rate 0.2% among 410,000; AID 624263; active = well fitted activation curve with a large enough effect; inconclusive = small, poorly fitted or top-dose-only effect; inactive = flat fitted curve, though single readings scatter; cell line not stated here;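 also: potency is read from the fitted curve at half-maximal effect; % of control where 0% means no effect; nearly all actives have a fitted effect of over 65% in size; a mitochondrial uncoupler was the plate control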
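Decision-based qHTS: stable cells, 24 h exposure to five compound concentrations, CCCP as control. Fixed cells stained for PINK1 plus nuclear, mitochondrial and cell markers, cytometer read.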
D2 PAM: potentiates the human D2 dopamine receptor allosterically; potentiation, % (test concentration not listed); P14416; DiscoveRx D2 beta-arrestin cells, luminescence, 90 min; 100% = 57 uM dopamine signal; hit rate 0.23% among 360,000; active = potentiation of 50% or more; inconclusive = 30% to 50%; inactive = 30% or less;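 also: compound concentration not given in the record; tested on top of an EC20 dose of dopamine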
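PathHunter D2 cells, attached overnight at 37 deg C, received compound in DMSO plus dopamine at EC20 (50 nM final) for 90 min at 37 deg C. Beta-arrestin recruitment was read as luminescence after 1 h with detection reagent at ambient temperature.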
TRPML1 inh: blocks the human TRPML1 channel. TRPML1-inducible cells, Ca2+ dye fluorescence, FDSS; stronger effect = lower value; inhibition of EC80 agonist-evoked calcium signal. hit rate 0.02% among 390,000. Q9GZU1. activity change, negative = inhibition, % (no concentration beside the values); in the data active means activity change below about -50%; inconclusive means about -30% to -50%; inactive means above about -30%;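 also: stimulus is agonist 54-4 at its EC80 concentration; % is scaled to controls: 0 for no effect and ±100 for the full control effect; compound concentration not given in the record; the text of the record puts the active cut at -80%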
Target sequence (Q9GZU1 whole entry, looked up): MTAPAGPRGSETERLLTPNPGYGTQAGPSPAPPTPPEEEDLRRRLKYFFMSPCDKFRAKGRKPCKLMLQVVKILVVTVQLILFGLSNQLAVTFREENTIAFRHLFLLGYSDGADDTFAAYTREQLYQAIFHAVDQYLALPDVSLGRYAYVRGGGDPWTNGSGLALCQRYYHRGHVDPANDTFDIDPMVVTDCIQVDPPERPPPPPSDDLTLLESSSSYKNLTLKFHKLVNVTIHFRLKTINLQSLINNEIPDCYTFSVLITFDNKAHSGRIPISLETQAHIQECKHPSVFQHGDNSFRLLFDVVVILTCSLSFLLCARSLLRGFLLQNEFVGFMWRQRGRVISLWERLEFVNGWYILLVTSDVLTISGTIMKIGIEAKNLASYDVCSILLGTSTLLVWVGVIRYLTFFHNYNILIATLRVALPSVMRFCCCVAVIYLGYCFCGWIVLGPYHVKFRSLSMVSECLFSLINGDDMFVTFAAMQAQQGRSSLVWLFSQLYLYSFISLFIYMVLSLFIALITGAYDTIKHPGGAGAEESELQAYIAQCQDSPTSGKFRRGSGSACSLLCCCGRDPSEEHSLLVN
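Calcium fluorescence in TRPML1-DL cells induced overnight with Tet: a 110 s read after compound pin addition, then a 110 s antagonist read after challenge with 54-4 at 4 uM final (EC80).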
TRPML1 agonist: activates the human TRPML1 channel | TRPML1-expressing cells, Ca2+ dye fluorescence, FDSS; host cell line not named in the record; reference of the full effect not given here | Q9GZU1 | activation, % (test concentration not listed) | hit rate 0.12% among 410,000; in the data active = activation above about 50%; inconclusive = about 30% to 50%; inactive = below about 30%; also: 0% is about no effect; the text of the record puts the active cut at 80%
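Kinetic FDSS Ca2+ read in Tet-induced TRPML1-DL cells (ABD Ca8 dye plus quencher, 45-90 min RT loading): baseline, then compound, then 110 s agonist window; EC80 agonist 54-4 at 4uM final added afterwards for a 110 s antagonist window.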
Six1-Eya2 blk: blocks human Six1 binding to Eya2 | AID 651725 | Q15475+O00167 | hit rate 0.56% among 360,000 | AlphaScreen GST-Six1/His-Eya2 binding, biochemical; stronger effect = lower value; control for the full effect not named in the record | activity change, % (no concentration beside the values); in the data active = activity change below about -65%; inconclusive = about -30% to -65%; inactive = above about -30%; also: % is scaled to controls: 0 for no effect and ±100 for the full control effect; compound concentration not given in the record
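AlphaScreen luminescence read after one hour at 37 °C in darkness. Pin-transferred compounds met GST-Six1 and His-Eya2 protein (5X stock 250 nM/500 nM) plus glutathione donor and Ni-chelate acceptor beads (5X, 50 ug/mL).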
An asterisk follows results filed as active; u = inconclusive; x = no result given; & = joins results of further samples; [ ] = dose if it differs, or a comment. Outcome played no part in choosing rows; 1% or so of the library scored in one or more.

Molecule | D2 ag | Six1-Eya2 blk | TRPML1 inh | D2 PAM | PINK1 modulator | TRPML1 agonist
COCC(=O)Nc1c(C(=O)Nc2ccc(C)cc2)oc2ccccc12 | x | x | 1.7 | x | 2.3% | 0.7
O=C(COC(=O)/C=C/c1ccco1)NCc1ccc(Cl)cc1 | -5.8 | -0.1 | -2.2 | -2.1 | -0.3% | -0.4
Cc1cc(C)c2c(N)c(C(=O)c3ccc(Br)cc3)oc2n1 | -3.1 | -5.3 | 21.5 | 0.0 | 5.1% | 0.9
COCC(C)n1c(C)cc(C(=O)Cn2nc(C(=O)O)c3ccccc3c2=O)c1C (stereo unspecified) | -2.7 | -2.4 | 9.1 | 5.4 | -0.1% | 0.8
Cc1nc(N2CCCCC2)sc1C(=O)c1cccc([N+](=O)[O-])c1 | -4.2 | -17.8 | 24.9 | -17.2 | -0.1% | 4.6
O=C(Nc1nc2c(s1)CCCC2)c1ccc(Br)s1 | -2.9 | -10.3 | -6.9 | -21.4 | 6.1%[38.3 µM] | 2.9
COc1ccc(O)c(/C=N/N=C2/C(=O)Nc3ccccc32)c1 | 7.9 | -12.6 | 27.4 | 0.0 | 0.3% | 3.6
O=C(CSc1nc2ccc(NC(=O)CSc3nnnn3Cc3ccccc3)cc2s1)Nc1ccccc1 | -0.7 | -0.7 | -18.8 | 15.3 | 3.5% | 1.6
COc1ccc(C(O)c2nc3ccccc3n2C)cc1OC (stereo unspecified) | -1.0 | -0.9 | 7.8 | 3.3 | 11.4%[38.3 µM] | 0.3
COc1ccc(OC)c(-c2cc(C(=O)Nc3c(C)nn(Cc4ccccc4)c3C)no2)c1 | 5.7 | -24.6 | -0.6 | 14.8 | 6.6%[38.3 µM] | 2.0
COc1cccc(-c2nn(C)c3sc(C(=O)NCc4ccco4)cc23)c1 | -3.0 | u | -2.7 | -27.8 | 1.3% | 2.7
CC(Nc1ccc(Cl)cc1)C(=O)NN (stereo unspecified) | 0.2 | -12.2 | 1.3 | -4.8 | 1.6% | -0.4
CCN1CCN(Cc2ccc(NC(=O)c3ccc(C)c(NC(=O)c4c[nH]c5cc(C(F)(F)F)ccc5c4=O)c3)cc2C(F)(F)F)CC1 | -1.9&1.6 | -4.0&-4.8 | -2.1&-10.1 | 0.1&0.4 | -2.7%&-1.5% | 0.1&3.0
O=C1N[C@@H](c2ccccc2)COC(=O)[C@H](Cc2ccc(F)cc2)CC/C=C/C[C@H]1CC(=O)N(CCO)Cc1ccccc1 | 0.4 | -7.2 | 30.7 | x | 18.3% | -0.5
O=C(O)c1ccccc1C(=O)c1cccc2c(F)cccc12 | -0.5 | 4.2 | 8.3 | 9.5 | 1.9% | 1.8
COC(=O)C1=C(C)N(CC2CC2)C(=NCCN2CCOCC2)N[C@H]1c1ccccc1 | 0.8 | 3.4 | -13.8 | -18.3 | -0.1% | -0.4
CC(C)(C)c1ccc(C(=O)N2CCC2(C)C(=O)Nc2cnc3ccccc3c2)cc1 (stereo unspecified) | 1.3 | 0.1 | -7.5 | -4.3 | 0.7% | -0.4
COc1cc(/C=C2/C(=O)NN(c3ccc(C)c(Cl)c3)C2=O)cc([N+](=O)[O-])c1O | -9.2 | -12.0 | 23.5 | -12.6 | 0.5% | 1.4
O=C(c1cccc(Cl)c1)N1CCC(N2CCC(C(=O)N3CCOCC3)CC2)CC1 | -4.2 | -0.8 | 2.9 | -2.6 | 0.0% | 0.9
CC(=NNS(=O)(=O)c1cccc([N+](=O)[O-])c1)c1ccc(-n2ccnc2)cc1 | -1.6 | -0.2 | -2.6 | 5.7 | 1.4% | 0.3
Cc1ccccc1-c1cccc([C@@H]2C[C@H]3[C@H](CON3C)CN2C)c1 | -2.3 | -3.1 | 54.6 | -16.1 | -0.2% | 1.6
CCN(CC)S(=O)(=O)c1cccc(N2CC(O)=C(c3ccccc3)C2=N)c1 | -3.0 | -0.1 | -8.8 | -4.7 | -0.5% | -0.2
CCc1nonc1NC(=O)c1oc2ccc(C)cc2c1C | -5.8 | 10.3 | 0.7&27.2 | -12.2 | 3.6%&2.7% | 0.7&-0.7
CC(C(=O)NCCc1ccc(Cl)cc1)n1c(=O)c2cccn2c2cccnc21 (stereo unspecified) | -7.3 | -7.0 | -7.8 | -6.1 | 2.2% | 1.4
COc1ccc(-n2nc(C(=O)NCC(=O)NC(C)C)c3ccccc3c2=O)c(OC)c1 | -4.9 | 6.9 | -3.2 | -8.3 | -0.1% | -0.7
CCCCCCCCCC(=O)NNC(=O)c1c(O)c2ccccc2n(CCC)c1=O | -2.1 | 4.8 | 2.1 | -2.0 | 2.0% | -0.2
CCN(CC)CC(=O)Nc1ccc2c(c1)N(C(=O)CN(CC)CC)c1ccccc1CC2 | -1.0 | 3.4 | 31.4 | -9.6 | x | -0.1
O=C(NC1CCCCCC1)C1c2ccccc2C(=O)N1Cc1ccco1 (stereo unspecified) | 0.8 | 1.4 | 20.7 | -8.7 | -1.7%[38.3 µM] | 2.4
CC(=O)CC1(O)C(=O)N(CN2CCN(c3ccccc3)CC2)c2ccccc21 (stereo unspecified) | 1.3 | 0.3 | 52.8 | -19.3 | 0.0%[38.3 µM] | 0.1
CNc1ccc(Br)cc(C(=O)/C=C/c2ccc3c(c2)OCO3)c1=O | 0.0 | -17.5 | 2.6 | 3.7 | 0.0% | 0.9
O=C(CN1C(=O)NC2(CCCCCC2)C1=O)N1CCN(S(=O)(=O)c2ccc(Cl)cc2)CC1 | -0.8 | 1.2 | 15.6 | -11.7 | u | -0.3
CCOC(=O)CC1C(=O)NCCN1S(=O)(=O)c1ccccc1Cl (stereo unspecified) | -2.4 | 0.0 | 0.8 | -7.1 | 3.6% | -0.5
Cc1cc(C)c(C(=O)/C=C/C=C/c2ccccc2)c(=O)[nH]1 | 1.1 | 7.2 | 27.7 | -1.5 | 1.8% | 0.7
CN(c1ccccc1)C(c1ccc(F)cc1)c1nnnn1CC1CCCO1 (stereo unspecified) | -2.1 | 2.3 | -7.5 | -5.0 | -3.2% | 3.0
Cc1noc(C)c1CSc1nnc2n(-c3ccccc3)c(=O)c3ccccc3n12 | 3.6 | 5.5 | 0.2 | -1.4 | 0.7% | 1.4
CCc1ccc(-c2nc(CN3CCCC(C(=O)O)C3)c(C)o2)cc1 (stereo unspecified) | 3.6 | 6.8 | -2.5 | -2.7 | -1.0% | -0.4
CC1=C(C(=O)N(C)C)CC(CC(=O)NCCCCc2ccccc2)C(=O)N1Cc1ccccc1 (stereo unspecified) | -3.6 | -1.9 | x | x | 2.0% | x
CCCCn1nnnc1SCC(=O)N1CCN(C(=O)c2ccco2)CC1 | -0.1 | 7.6 | 1.6 | -13.6 | -1.4% | -0.7
O=C(CC1C(=O)NCCN1C(=O)Nc1ccccc1)Nc1cccc(C(F)(F)F)c1 (stereo unspecified) | 1.4 | 5.9 | 2.7 | -14.8 | -1.8% | 0.3
CC(C)(C)c1ccc(OCC(=O)N(Cc2ccco2)Cc2ccccc2F)cc1 | x | x | 6.2 | x | u | 1.3
Cc1ccc(-n2ncc3c2CCCC3NC(=O)CCCN2CCCC2=O)cc1C (stereo unspecified) | -1.3 | 2.6 | 28.1 | -1.2 | 1.2% | -0.3
Cc1cccc2nc(Cn3c(=O)n(-c4ccccc4)c(=O)c4c5c(sc43)CCC5)cc(=O)n12 | x | x | 1.2 | x | 1.7% | 1.0
Cc1onc(-c2ccccc2Cl)c1C(=O)N(C)Cc1ccccc1 | -4.0 | 3.1 | 8.1 | -6.5 | 2.7% | 1.4
O=C(CCn1c2c(c3ccccc31)CCCC2)NNC(=O)c1ccc(Cl)c([N+](=O)[O-])c1 | -4.7 | -15.6 | 23.7 | -16.1 | -0.1% | 0.6
COc1ccc(N2CCN(C(=O)c3cccc(S(=O)(=O)N4CCc5ccccc54)c3)CC2)cc1 | 3.5 | u | 4.7 | -6.5 | 1.2% | 1.1
OC1NC(=S)N(c2ccccc2)C1O (stereo unspecified) | -3.1 | 7.1 | 14.1 | -14.5 | 2.9% | -0.5
CCN(CC)S(=O)(=O)c1ccc(N2CCOCC2)c(NC(=O)CSCc2c(C)noc2C)c1 | 2.9 | 0.1 | 3.5 | 3.7 | 1.2% | -0.5
COc1cccc(C(=O)Nc2nc3ccccc3s2)c1 | -7.6 | -3.6 | 7.2 | -7.9 | 2.3% | -0.2
Cc1cc(N/N=C/c2ccc3c(c2)OCO3)nc2ccccc12 | -4.6 | -7.8 | 1.2 | -22.0 | u | 3.9
CCN(CC)CCNC(=O)CNC(=O)c1nn(-c2ccc(OC)cc2OC)c(=O)c2ccccc12 | -1.4 | 7.2 | 5.1 | -14.9 | -0.8% | 0.1
O=C(c1csc(Nc2cccc3ccccc23)n1)N1CCCC1 | 9.1 | 4.0 | 26.6 | 22.7 | 1.3% | 2.8
COc1ccccc1CNC(=O)c1ccc(CS(=O)(=O)c2ccccc2C)o1 | -2.4 | -13.4 | -3.1&-3.7 | -9.4 | 0.4%&0.6% | 6.5&7.5
COc1cc(-c2noc(CCCC(=O)NC3CCCCC3)n2)cc(OC)c1OC | -1.3 | 2.1 | -27.2 | -6.8 | 9.1%[38.3 µM] | 1.2
O=C(CCc1nnc2ccc(NCCCN3CCCC3=O)nn12)NCc1ccccc1Cl | -1.2 | 2.6 | 9.6 | 1.4 | 2.2% | -0.4
CCOCCCNC(=S)N1CCC(C(=O)c2ccc3c(c2)OCCO3)CC1 | 2.3 | -5.7 | 4.7 | -2.5 | -0.9% | -0.7
CC(=O)Nc1ccc(NC(=O)CN(c2ccc(C34CC5CC(CC(C5)C3)C4)cc2)S(C)(=O)=O)cc1 | 4.5 | -4.4 | 11.5 | -4.3 | x | 1.0
CCn1nnnc1NCc1cccc(Cl)c1 | -5.5 | -5.3 | 2.2 | -2.2 | 1.3% | 0.0
OCC1(Cc2ccc(F)cc2)CCCN(Cc2ccc(F)cc2Cl)C1 (stereo unspecified) | -3.4 | -13.9 | 40.2 | -18.3 | -0.6% | -0.2
COc1cccc(C2/C(=C(/O)c3ccccc3)C(=O)C(=O)N2CCCC(=O)O)c1 (stereo unspecified) | -2.9 | 5.1 | -9.7 | 9.2 | -2.3% | -0.4
O=C(OCC(=O)c1cccc2ccccc12)c1ccc(CO)cc1 | 3.9 | -6.3 | 6.2 | 18.5 | -1.1% | 1.9
CN(Cc1ccccc1)C1CCNCC1 | 0.0 | 7.8 | -15.7 | -0.8 | -1.3% | 0.2
Cc1ccc(CN2CCSc3ccc(C(=O)N4CCN(c5cccc(C)c5C)CC4)cc32)cc1 | x | x | 36.7 | x | 2.9% | -0.4
Cn1c(=O)c2c(nc(Br)n2CCSc2nc3ccccc3o2)n(C)c1=O | -2.7 | -1.1 | -14.7 | -0.5 | -3.9% | -1.3

High-throughput results (PubChem)
